From PubChem BioAssay
Rango complex inh: inhibitors of Rango-importin beta complex formation; Rango CFP/YFP FRET sensor + importin beta, 45 min; Potency, µM (doses to about 92.2 µM), inactives show at the highest dose inhibition of complex formation; 340,000 compounds, 0.031% hits; AID 540263; active = rising FRET ratio curve, often small or poorly fitted; inconclusive = mostly compound fluorescence or quenching in the first reads; inactive = flat curves in all reads;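 note: potency is the fitted concentration of half-maximal effect; 0% = DMSO wells and 100% = buffer wells lacking importin beta; nearly all actives have a fitted effect of over 15% in size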
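FRET biosensor (snurportin 1 IBB flanked by EYFP and cerulean), 50 nM, with compound 5 min, then 0.125 microM importin beta in PBS, 1 mM DTT, 0.02% Tween-20, 0.1% BSA. CFP/YFP ratio read after 45 min at room temperature; pre-read flags interference.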
miR-21 reporter: raises the signal of a miR-21 reporter; 340,000 tested, under 10 active; Potency, µM (series often up to 38.3 µM), without a hit: top-dose reporter change, positive = more light; AID 2288; HeLa miR-21 FLuc reporter, luciferase, 48 h; active = well fitted rising curve with a large enough effect; inconclusive = small, poorly fitted or top-dose-only effect; inactive = no such curve, though single readings can be large or run the other way;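 note: % of control where 0% means no effect; miR-21 action dims this reporter so a rising signal means less miR-21 action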
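Using DMEM plus 10% FBS, HeLa miR-21-FLuc cells are incubated with test compounds (final up to about 40uM) for 48 hours; firefly luciferase signal is then imaged following reagent-mediated lysis.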
Rango dissoc inh: prevents RanGTP from dissociating the Rango-importin beta complex | Potency, µM (top dose mostly 46.1 µM), for the others: top-dose activity change, negative = inhibition | AID 540253 | 340,000 compounds, 0.071% hits | Biochemical FRET Rango-importin beta, RanGTP-induced dissociation | O95149+P62826; active means falling FRET ratio curve, often poorly fitted, with flat reads before Ran was added; inconclusive means other falling curves, or compound fluorescence or quenching; inactive means flat or rising ratio curve;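 note: potency is the fitted concentration of half-maximal effect; % of control where 0% means no effect; nearly all actives have a fitted effect of over 45% in size; -100% = wells without RanGTP and RCC1; the record marks most hits as doubtful in a second field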
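Two FRET readings bracket the reaction: one 5 min after compound meets Rango–importin beta, another 45 min after RanGTP-RCC1 (0.6 uM Ran, 0.2 uM RCC1, 2 mM GTP) is added. Only the second defines inhibition.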
GLA inh pH 4.5: inhibitors of human alpha-galactosidase A at pH 4.5 | AID 1467 | purified enzyme, 4-MU-alpha-Gal fluorescence, pH 4.5 | activity change, negative = inhibition, % at 105 µM | P06280 | 230,000 tested, under 10 active; inconclusive = small, poorly fitted or top-dose-only inhibition, or a rising curve; inactive = flat fitted curve, though single readings scatter; no compound was filed as active;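 note: 0% = full activity with enzyme and -100% = basal without enzyme; dose as in the result columns while the protocol names 77 µM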
Target sequence (P06280 whole entry, looked up): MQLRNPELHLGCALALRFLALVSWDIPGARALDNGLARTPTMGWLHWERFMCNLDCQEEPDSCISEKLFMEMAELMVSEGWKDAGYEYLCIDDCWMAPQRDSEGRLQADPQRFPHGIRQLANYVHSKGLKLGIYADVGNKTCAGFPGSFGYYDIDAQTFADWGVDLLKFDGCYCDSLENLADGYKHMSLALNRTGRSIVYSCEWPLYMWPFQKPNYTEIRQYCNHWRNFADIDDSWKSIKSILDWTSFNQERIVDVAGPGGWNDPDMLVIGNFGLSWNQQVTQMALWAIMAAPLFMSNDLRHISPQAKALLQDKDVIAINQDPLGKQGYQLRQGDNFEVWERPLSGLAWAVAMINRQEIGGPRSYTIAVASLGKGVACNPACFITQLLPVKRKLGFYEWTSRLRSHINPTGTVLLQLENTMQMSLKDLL
The depositor's hits bear a star; ? = inconclusive; nt = no result given; & = joins results of further samples. These rows are one share of the data (hit frequency here may not be typical).

| compound | Rango complex inh | miR-21 reporter | Rango dissoc inh | GLA inh pH 4.5 |
| --- | --- | --- | --- | --- |
| CCCCC(=O)Nc1nc(C)c(-c2csc(Nc3ccccc3OC)n2)s1 | -3.0% | 3% | -10% | 5 |
| Cc1ccccc1NC(=S)Nc1ccccc1 | 5.8% | -6% | 22% | nt |
| CCC(c1nnc(SCC(=O)Nc2ccc(NC(C)=O)cc2)n1Cc1ccccc1)N(C)C (stereo unspecified) | -0.9% | 1% | -10% | nt |
| Cc1ccc(S(=O)(=O)N2CCOCC2)cc1C(=O)N1CCN(Cc2ccccc2)CC1 | -1.5% | nt | 9% | nt |
| C[C@@H]1CC=C[C@@H]2[C@H]1C(=O)N(Cc1ccccc1)[C@H]2c1cccc(C#Cc2ccccc2)c1 | -0.4% | nt | 2% | -1 |
| COc1ccc2c(c1)-c1ccccc1S(=O)(=O)N2C(C)=O | -2.0% | 1% | -5% | ? |
| Cc1ccc(NC(=O)CCNS(=O)(=O)c2cc(Br)cnc2N)c(Cl)c1 | nt | -4% | nt | 6 |
| Cc1ccc(Cn2c(=O)n(C)c(=O)c3sccc32)cc1 | 5.2% | 1% | -2% | nt |
| O=C(O)C1(O)C[C@H](O)C(O)[C@@H](O)C1 (stereo partly specified) | 0.2% | nt | -22% | 2 |
| CCC(=O)Nc1ccc(NC(=O)CSc2nnnn2-c2cccnc2)cc1C | -1.9% | -5% | -9% | -18 |
| COc1ccccc1N1CCN(CC(O)c2ccc3cc[nH]c3c2)CC1 (stereo unspecified) | -0.6% | -4% | 15% | -11 |
| O=C(Nc1ccc(Oc2ccc(C(=O)O)c(C(=O)O)c2)cc1)c1cccs1 | -2.9% | 5% | 20% | 1 |
| CNc1nc(SCC(=O)Nc2ccccc2)nc(N2CCOCC2)n1 | 0.7% | -6% | -1% | nt |
| COc1c(/C=C2\SC(=Nc3ccccc3Cl)NC2=O)cccc1[N+](=O)[O-] | 6.7% | -21% | -14% | nt |
| Cc1cc(F)ccc1S(=O)(=O)N1CCCOC1CNC(=O)C(=O)NCc1ccco1 (stereo unspecified) | -0.1% | 0% | -18% | -4 |

Going on with the list:
| compound | Rango complex inh | miR-21 reporter | Rango dissoc inh | GLA inh pH 4.5 |
| --- | --- | --- | --- | --- |
| O=C(CSc1nc(-c2ccccc2)c(-c2ccccc2)[nH]1)Nc1ccc2c(c1)OCO2 | -0.5% | -13% | 2% | 0 |
| COc1cc2c(cc1OC)-c1nc3ccccc3c(=O)n1C(C)(C)C2 | 0.8% | -4% | 0% | -1 |
| Cc1ccc(OCC(=O)Nc2sc3c(c2C#N)CC(C)(C)NC3(C)C)cc1 | -2.4% | -6% | -3% | 2 |
| Cc1cc(C)c2nc(NC(=O)c3ccc(OCC4CCCO4)cc3)sc2c1 (stereo unspecified) | -0.5% | -45% | -8% | -21 |
| COc1ccc(C(=O)Nc2cc(OC)cc(OC)c2)cc1 | 3.1% | -38% | -13% | -2 |
| Cc1nn(CC(=O)NN)c(C)c1Br | -0.8% | -3% | 27% | -2 |
| Cc1ccc(NC(=O)NC(=O)CSc2nnc(-c3ccc(Cl)cc3Cl)n2N)c(C)c1 | -4.1% | -36% | -2% | -2 |
| CCc1cc(C(=O)N(Cc2ccccc2)c2c(N)n(CCOC)c(=O)[nH]c2=O)sc1C | -1.8% | nt | -11% | nt |
| Cc1ccc(C)c(NC(=O)CN(C)C(=O)[C@@H](NC(=O)c2ccc(C(C)(C)C)cc2)C(C)C)c1 | 1.0% | -3% | 6% | -7 |
| COc1ccc(/C=C(\NC(=O)c2ccc(Cl)cc2)C(=O)NCC2CCCO2)cc1OC (stereo unspecified) | 2.2% | 0% | -8% | nt |
| Cc1ccc2c(c1)c1nnc(SCC(=O)Nc3ccc(N(C)C)cc3)nc1n2CC(=O)O | 2.2% | -1% | -13% | nt |
| O=C(CSc1nnnn1-c1ccc2c(c1)OCO2)NCc1ccccc1 | -1.4% | 5% | -15% | 0 |
| COC(=O)CN(c1c(C)cccc1C)S(C)(=O)=O | 3.6% | -5% | 10% | 6 |
| CCC(=O)N1c2ccccc2C(N(C(=O)CC)c2ccccc2)CC1C (stereo unspecified) | 0.0% | 1% | 3% | -2 |
| CC(C)CCNC(=O)Nc1ccc2c(c1)N(C)C(=O)CS2 | 2.9% | -17% | 1% | 4 |

15 structures already listed, sorted by length of the SMILES, highest first.
| compound | Rango complex inh | miR-21 reporter | Rango dissoc inh | GLA inh pH 4.5 |
| --- | --- | --- | --- | --- |
| Cc1ccc(C)c(NC(=O)CN(C)C(=O)[C@@H](NC(=O)c2ccc(C(C)(C)C)cc2)C(C)C)c1 | 1.0% | -3% | 6% | -7 |
| O=C(CSc1nc(-c2ccccc2)c(-c2ccccc2)[nH]1)Nc1ccc2c(c1)OCO2 | -0.5% | -13% | 2% | 0 |
| Cc1ccc2c(c1)c1nnc(SCC(=O)Nc3ccc(N(C)C)cc3)nc1n2CC(=O)O | 2.2% | -1% | -13% | nt |
| Cc1ccc(NC(=O)NC(=O)CSc2nnc(-c3ccc(Cl)cc3Cl)n2N)c(C)c1 | -4.1% | -36% | -2% | -2 |
| COc1c(/C=C2\SC(=Nc3ccccc3Cl)NC2=O)cccc1[N+](=O)[O-] | 6.7% | -21% | -14% | nt |
| Cc1cc(F)ccc1S(=O)(=O)N1CCCOC1CNC(=O)C(=O)NCc1ccco1 (stereo unspecified) | -0.1% | 0% | -18% | -4 |
| Cc1ccc(OCC(=O)Nc2sc3c(c2C#N)CC(C)(C)NC3(C)C)cc1 | -2.4% | -6% | -3% | 2 |
| Cc1cc(C)c2nc(NC(=O)c3ccc(OCC4CCCO4)cc3)sc2c1 (stereo unspecified) | -0.5% | -45% | -8% | -21 |
| COc1cc2c(cc1OC)-c1nc3ccccc3c(=O)n1C(C)(C)C2 | 0.8% | -4% | 0% | -1 |
| CCC(=O)N1c2ccccc2C(N(C(=O)CC)c2ccccc2)CC1C (stereo unspecified) | 0.0% | 1% | 3% | -2 |
| O=C(CSc1nnnn1-c1ccc2c(c1)OCO2)NCc1ccccc1 | -1.4% | 5% | -15% | 0 |
| CNc1nc(SCC(=O)Nc2ccccc2)nc(N2CCOCC2)n1 | 0.7% | -6% | -1% | nt |
| CC(C)CCNC(=O)Nc1ccc2c(c1)N(C)C(=O)CS2 | 2.9% | -17% | 1% | 4 |
| COc1ccc(C(=O)Nc2cc(OC)cc(OC)c2)cc1 | 3.1% | -38% | -13% | -2 |
| COC(=O)CN(c1c(C)cccc1C)S(C)(=O)=O | 3.6% | -5% | 10% | 6 |

(next part)
| compound | Rango complex inh | miR-21 reporter | Rango dissoc inh | GLA inh pH 4.5 |
| --- | --- | --- | --- | --- |
| CCOc1cccc2cc(C(=O)NC(C)c3ccccc3)c(=N)oc12 (stereo unspecified) | 0.9% | 0% | -12% | nt |
| CC(C)CCOc1ccc(C(=O)O)cc1 | -0.7% | -9% | 6% | 4 |
| CN1CCN(Cc2c(C(=O)N3CCc4ccccc4C3)nc3ccc(Cl)cn23)CC1 | -0.3% | -3% | -13% | nt |
| O=C(NCC(F)(F)F)c1nn(Cc2ccccc2)c(=O)c2ccccc12 | -8.8% | 3% | 4% | nt |
| CN(Cc1ccccc1)S(=O)(=O)c1ccccc1Br | -3.6% | nt | 32% | nt |
| COC(=O)C1CCCN1C(=O)C1CCCN1C(=O)CNC(=O)OCc1ccccc1 (stereo unspecified) | -0.2% | -5% | -12% | 0 |
| CCOC(=O)c1c(C)c[nH]c1C | 1.5% | -3% | 1% | -5 |
| CCOc1ccccc1NC(=O)Cn1c(-c2ccc(Cl)cc2)noc1=O | -0.2% | -3% | -18% | -1 |
| CCOc1cc(C(=O)N(C)CC(=O)Nc2cccc(F)c2)ccc1OCC(=O)N1CCCCC1 | 3.5% | nt | -21% | nt |
| CCOC(=O)c1[nH]c2ccc(OC)cc2c1C | -0.7% | -34% | -9% | 5 |
| O=C(/C=C/c1ccccc1)N(Cc1ccc(Cl)cc1)C1CCS(=O)(=O)C1 (stereo unspecified) | 2.8% | -3% | 20% | -1 |
| Cc1cc(Cc2cc(C)c(O)c(CO)c2)cc(CO)c1O | 65µM* | nt | 9% | nt |
| CC(=O)NCCn1c(SCC(=O)Nc2ccc(C)cc2)nc2ccccc2c1=O | -1.2% | 0%&-7% | 6% | 1 |
| S=C(Nc1ccc2snnc2c1)N1CCN(c2ccccn2)CC1 | -2.3% | -17% | 3% | -10 |
| CC(=O)Nc1ccc(S(=O)(=O)N2CCCCC2c2cccnc2)cc1 (stereo unspecified) | -1.6% | -10% | 14% | 0 |

The results go on:
| compound | Rango complex inh | miR-21 reporter | Rango dissoc inh | GLA inh pH 4.5 |
| --- | --- | --- | --- | --- |
| COc1ccc(C)cc1NC(=O)c1nn(-c2ccccc2)cc1OC | -0.6% | 0% | 9% | nt |
| C/C(=N\O)C(=O)NCCCNCCCN(C)C | -0.9% | 0% | 0% | 4 |
| CC1CCN(C(=O)CN(Cc2ccc(F)cc2)S(C)(=O)=O)CC1 | 1.6% | -1% | 10% | nt |
| CC(C)c1ccc(C(C(=O)NC(C)(C)C)N(C(=O)CNC(=O)c2ccco2)c2cccnc2)cc1 (stereo unspecified) | 0.4% | -7% | -15% | 1 |
| COc1cc(OC)c2c(O)c3c(c(-c4c5c(c(O)c6c(OC)cc(OC)cc46)CO[C@@H](C)[C@H]5O)c2c1)[C@H](O)[C@H](C)OC3 | ? | 1% | ? | 4 |
| COc1cc(Br)c(C(C)NC(=O)c2ccc(C)cc2)cc1OC (stereo unspecified) | 2.3% | 0% | -4% | 4 |
| O=S(=O)(NCc1ccccc1Cl)c1cccs1 | -3.1% | -23% | 10% | 2 |
| O=C(N/N=C/c1c(O)n(-c2ccccc2Cl)c(=O)c2ccccc12)c1cccnc1 | ? | -10% | ? | -3 |
| Cc1ccc2nc(-c3ccccn3)oc2c1 | -4.7% | -3% | -5% | -1 |
| CCN(CC)c1ccc2nc3ccccc3[n+](CC)c2c1 | -2.8% | ? | -14% | nt |
| NC(=O)CC(NC(=O)Cc1ccc(Br)cc1)c1ccc(NC2CCN(Cc3ccccc3)CC2)c([N+](=O)[O-])c1 (stereo unspecified) | 52µM* | 11% | 0% | nt |
| CCOC(=O)C(C(=O)NCc1cccc(OC)c1)c1ncc(C(F)(F)F)cc1Cl (stereo unspecified) | -0.3% | -8% | -14% | 2 |
| C1CCCN(c2nc3nonc3nc2N2CCCCCC2)CC1 | 5.2% | -3% | 9% | 2 |
| CCN(CC)C(=S)Nc1ccc(OC)cc1 | 2.6% | -4% | -8% | -3 |
| COc1ccc(N(C(=O)c2snc(C(N)=O)c2N)C(C(=O)NC2CCCCC2)c2ccc(C)o2)cc1 (stereo unspecified) | -7.4% | -1% | 3% | nt |

Going on with the list:
| compound | Rango complex inh | miR-21 reporter | Rango dissoc inh | GLA inh pH 4.5 |
| --- | --- | --- | --- | --- |
| CCNC(=O)N1CCCC(C(=O)c2ccc3cc(OC)ccc3c2)C1 (stereo unspecified) | -1.0% | -23% | -5% | 6 |
| Cc1cccc2c1Sc1ccc(Cl)cc1CC2N1CCNCC1 (stereo unspecified) | 3.8% | nt | -9% | nt |
| COc1ccc(-c2nc3ncccc3o2)cc1NC(=O)c1cccs1 | 4.9% | -1% | -29% | nt |
| CCC(=NOCc1ccccc1)C(=O)NNS(=O)(=O)c1ccc(C)cc1 | 0.4% | nt | -8% | nt |
| O=C(C1CC2CCC1C2)N1CCN(Cc2ccc3c(c2)OCO3)CC1 (stereo unspecified) | -0.3% | 1% | 1% | 2 |
| Cc1csc2c(=O)sc(NC(=O)c3ccc(F)cc3Cl)nc12 | ? | -2% | 5% | 1 |
| c1ccc(CSc2snnc2-c2ccccc2)cc1 | 5.4% | -41% | 16% | -2 |
| COc1cc(C(=O)Nc2nnc(C3=COCCO3)o2)cc(OC)c1OC | 1.0% | 1% | 3% | nt |
| Cn1c(CSCc2ccccc2)nnc1SCC(=O)Nc1nccs1 | -0.3% | 0% | 0% | 6 |
| COc1ccc(CN2CCSCC2)cc1C | 2.6% | 6% | 11% | 1 |
| N/C(=N\OC(=O)c1cccnc1)c1ccc(Cl)cc1Cl | 1.6% | -21% | 0% | -6 |
| Cc1ccc2c(CC(=O)OCC(=O)N(CC(C)C)c3c(N)n(Cc4ccccc4)c(=O)[nH]c3=O)coc2c1 | ? | nt | -8% | nt |
